CHT block – inhibitors of human choline transporter CHT; High affinity choline transporter 1 (Homo sapiens), Q9GZV3; CHT-expressing cells, membrane potential dye, choline response; stronger effect = lower value; B-score at 10 µM; actives 0.86% (n = 310,000); AID 488975, 2010;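 active = B-score over 3 SD under the library average, and starting fluorescence ratio not unusually high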;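 note: choline stimulus applied at its EC90 after an EC20 pre-addition; B-score computed on integrated fluorescence ratio after choline addition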
Target sequence (Q9GZV3 whole entry, looked up): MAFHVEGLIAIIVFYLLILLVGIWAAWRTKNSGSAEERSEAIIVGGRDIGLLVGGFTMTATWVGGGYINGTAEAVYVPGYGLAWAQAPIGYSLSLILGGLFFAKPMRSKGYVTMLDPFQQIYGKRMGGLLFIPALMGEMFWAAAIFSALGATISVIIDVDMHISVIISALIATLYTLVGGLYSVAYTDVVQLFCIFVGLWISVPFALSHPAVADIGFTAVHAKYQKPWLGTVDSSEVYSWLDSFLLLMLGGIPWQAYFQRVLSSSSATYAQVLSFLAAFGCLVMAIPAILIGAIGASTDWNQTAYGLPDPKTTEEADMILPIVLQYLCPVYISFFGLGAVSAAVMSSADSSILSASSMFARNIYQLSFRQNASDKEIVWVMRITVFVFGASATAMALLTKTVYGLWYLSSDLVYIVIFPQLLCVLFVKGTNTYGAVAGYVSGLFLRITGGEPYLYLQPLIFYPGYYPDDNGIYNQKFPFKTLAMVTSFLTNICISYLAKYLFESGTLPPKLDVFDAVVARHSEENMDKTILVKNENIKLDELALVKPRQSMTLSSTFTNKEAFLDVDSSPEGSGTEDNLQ
Calls only; i = inactive.

No.	SMILES	CHT block
1	O=C(CN1CCN(c2nc(-c3ccc(F)cc3)cs2)CC1)NCc1ccc2c(c1)OCO2	i
2	CCCCCCCCCCNC(=O)CCn1[nH]c(=O)c2ccccc2c1=O	i
3	N#Cc1ccccc1NC(=O)c1ccc2c(Cl)c3c(nc2c1)CCCC3	i
4	Cc1noc(C)c1S(=O)(=O)Nc1ccccc1N1CCOCC1	i
5	O=S(=O)(c1ccc(Cl)cc1)n1c(Cc2ccccc2)nc2ccccc21	i
6	CNC(=S)N/N=C(\C)c1ccc(Cl)s1	i
7	O=C(COC(=O)c1cc2c(s1)CCCC2)Nc1ccc(Cl)cn1	i
8	Cc1onc(-c2ccccc2Cl)c1C(=O)N1C=CC(C(F)(F)F)=NCC1	i
9	O=C(CC1(O)C(=O)Nc2cc(Cl)cc(Cl)c21)c1ccncc1 (stereo not given)	i
10	CCOC(=O)N1CCN(C(=O)CCl)CC1	i
11	Cc1ccc(C)c(S(=O)(=O)Nc2ccc3[nH]c(=O)[nH]c3c2)c1	i
12	COC/C=C/C1=CC2=CC(=O)C(C)(OC(=O)c3cnc4ccccc4n3)C(=O)C2=CN1CCCOC(C)C (stereo not given)	i
13	CC(C)CCn1c(SCc2ccc(Cl)cc2)nc2c1c(=O)[nH]c(=O)n2C	i
14	CCCCS/C(=C(/C#N)C(N)=O)c1cc2c([nH]1)CCCC2	i
15	Cc1nn(-c2ccccc2)c(N2CCCC2)c1/C=N/NC(=O)c1cc2ccccc2cc1O	i
16	Cc1cccc(C)c1NC(=O)c1cc(-c2ccccn2)nc2ccccc12	i
17	O=C(COc1ccccc1[N+](=O)[O-])Nc1ccc2c(c1)OCO2	i
18	Oc1cccc(C2c3[nH]c4ccccc4c3CCN2Cc2ccoc2)c1 (stereo not given)	i
19	CCNC(=S)NNC(=O)c1cc(-c2ccccc2C)nc2ccccc12	i
20	CCOc1ccc(NC(=S)NC(=O)Cc2ccccc2)cc1	i

Random excerpt: 5 compounds from above.
No.	SMILES	CHT block
5	O=S(=O)(c1ccc(Cl)cc1)n1c(Cc2ccccc2)nc2ccccc21	i
11	Cc1ccc(C)c(S(=O)(=O)Nc2ccc3[nH]c(=O)[nH]c3c2)c1	i
6	CNC(=S)N/N=C(\C)c1ccc(Cl)s1	i
17	O=C(COc1ccccc1[N+](=O)[O-])Nc1ccc2c(c1)OCO2	i
13	CC(C)CCn1c(SCc2ccc(Cl)cc2)nc2c1c(=O)[nH]c(=O)n2C	i

Some of these compounds in order of count of non-hydrogen atoms, low to high:
No.	SMILES	CHT block
14	CCCCS/C(=C(/C#N)C(N)=O)c1cc2c([nH]1)CCCC2	i
11	Cc1ccc(C)c(S(=O)(=O)Nc2ccc3[nH]c(=O)[nH]c3c2)c1	i
12	COC/C=C/C1=CC2=CC(=O)C(C)(OC(=O)c3cnc4ccccc4n3)C(=O)C2=CN1CCCOC(C)C (stereo not given)	i

Next records
No.	SMILES	CHT block
21	Cc1ccccc1Cn1nc(C)c(NC(=O)c2cc(CC(C)C)on2)c1C	i
22	CN(C)c1nnnn1-c1ccc(Oc2ncc(C(F)(F)F)cc2Cl)cc1	i
23	COc1cc(C2CC(=O)Nc3cc(C)c(C)cc32)cc(OC)c1OC (stereo not given)	i
24	Clc1nc(Cl)nc(N(c2ccccc2)c2ccccc2)n1	i
25	CC1CCN(S(=O)(=O)c2cccc(C(=O)NNC(=O)c3ccco3)c2)CC1	i
26	COc1ccc(N(CC(=O)Nc2ccccc2C(=O)NCC(C)C)S(C)(=O)=O)cc1	i
27	Cc1oc(-c2ccccc2F)nc1CS(=O)(=O)CC(=O)NCCCN(C)C1CCCCC1	i
28	COc1cccc(CN2CCCC(C(=O)N3CCCCC3)C2)c1 (stereo not given)	i
29	CC(C)(C)OC(=O)Nc1ncnc2c1ncn2C1OC(CO)C2OC(C)(C)OC21 (stereo not given)	i
30	O=c1n(-c2ccccc2)c(=O)n(Cc2ccccn2)n1Cc1ccccn1	i
31	CCN(CC)C(=O)N1CCN(S(=O)(=O)c2ccccc2)CC1	i
32	C/C(=N\Nc1ccccn1)c1ccc(S(=O)(=O)NCc2ccco2)cc1	i
33	O=CNNC(=O)c1cccc([N+](=O)[O-])c1	i
34	N#Cc1nc(COc2ccccc2)oc1N1CCOCC1	i
35	Cn1/c(=N/N=C/c2ccc(N3CCOCC3)cc2)sc2ccccc21	i
36	COc1ccc(C(C)(C)C)cc1NC(=O)COC(=O)c1cc(SC)ccc1Cl	i
37	Cc1ccc(CN2C(=O)CCC2C(=O)N2CCN(c3ccccc3)CC2)cc1 (stereo not given)	i
38	COc1ccc(C)cc1S(=O)(=O)N1CCC2(CC1)OCCN2S(=O)(=O)c1ccccc1	i
39	O=C(CN(Cc1ccccc1)C1=NCCS1)c1ccccc1	i
40	CCOC(=O)N1CCN(C(=O)c2ccc3c(c2)N(Cc2ccccc2)CCS3)CC1	i

Additional compounds
No.	SMILES	CHT block
41	COc1cc(/C=N/NC(=O)c2cccc([N+](=O)[O-])c2)ccc1OCc1ccccc1	i
42	COc1ccc(-c2nc(CN3CCC(C(=O)NCC4CCCO4)CC3)c(C)o2)cc1OC (stereo not given)	i
43	O=C(O)CCCC(=O)Nc1ccc(C(=O)NCc2cccnc2)cc1	i
44	COc1cc(CN2CCN(c3ccccc3C)CC2)cc([N+](=O)[O-])c1O	i
45	COc1ccc(C(=O)Nc2ccc(/C(C)=N/NC(=O)c3ccccc3O)cc2)cc1OC	i
46	C=CCNC(=O)C(=O)NCC1CCCN1S(=O)(=O)c1cccs1 (stereo not given)	i
47	CCn1nc(C)c(Br)c1-c1nc(CS(=O)(=O)c2ccsc2)no1	i
48	COCCN(CC(=O)NCC1CCCO1)C(=O)CCC(=O)Nc1ccccn1 (stereo not given)	i
49	CCOc1ccc(NC(=O)CSc2nnc(Cn3cnc4ccccc43)n2C)cc1	i
50	O=C(Nc1cc2c3c(c1)CC(=O)N3CCC2)c1ccc(Br)o1	i
51	O=C(Nc1cc(Br)ccc1O)c1cc(-c2ccco2)on1	i
52	Cc1ccc(C(C)NC(=O)c2c(-c3ccccc3)noc2C)cc1C (stereo not given)	i
53	COc1ccccc1C1C(C#N)=C(N)Oc2c1oc(CO)cc2=O (stereo not given)	i
54	Cc1nc(CNS(=O)(=O)c2cccnc2)cs1	i
55	CCOC(=O)N/N=C/c1cc(C)n(-c2ccccc2)c1C	i
56	O=C1N=C(N2CCOCC2)S/C1=C\c1ccc(OS(=O)(=O)c2ccccc2)cc1	i
57	CC(Cl)c1cc(-c2ncc(C(F)(F)F)cc2Cl)no1 (stereo not given)	i
58	c1ccc2[nH]c(CCCc3nc4ccccc4[nH]3)nc2c1	i
59	Cc1cc(C)n2nc(CC(=O)NNC(=O)c3ccccc3Cl)nc2n1	i
60	O=C(N/N=C1/CC2CCC1C2)c1cc2ccccc2cc1O (stereo not given)	i

Along the list, quoted from above.
Entries 43 to 52 in CHT block: i, i, i, i, i, i, i, i, i, i

The results go on.
No.	SMILES	CHT block
61	COCc1ccc(CN2CCCC(C(=O)Nc3ccc(-c4cccc(OC)c4)cc3)C2)o1 (stereo not given)	i
62	CC1=C(C(=O)OC2CCCCCCC2)C(c2cc3c(cc2Br)OCO3)CC(=O)N1 (stereo not given)	i
63	Cc1ccc2nc(CCc3nc4ccc(C)cc4o3)oc2c1	i
64	CCOc1ccc(CNC(=O)CCC(=O)N2Cc3ccccc3Oc3ncccc32)cc1	i
65	[O-]/[N+](=C/c1cccnc1)c1ccc(Br)cc1	i
66	C/C(=N\N=C1/SC(CC(=O)O)C(=O)N1c1ccccc1)c1ccc(C)cc1 (stereo not given)	i
67	CCn1c(SCC(=O)Nc2nc(C)c(C)s2)nnc1-c1cccnc1	i
68	C=CCn1c(C)c(C(=O)OCC)c2cc(O)c3ccccc3c21	i
69	Cc1ccc(CCN2CC(C(=O)NCc3ccc4c(c3)OCO4)CC2=O)cc1 (stereo not given)	i
70	COc1ccc(N2C(=O)CC(Nc3ccc(F)cc3)C2=O)c([N+](=O)[O-])c1 (stereo not given)	i
71	CN(C)S(=O)(=O)c1ccc(C(=O)NCc2nc3ccccc3s2)cc1	i
72	CCN1CCN(C(=S)Nc2cccc([N+](=O)[O-])c2)CC1	i
73	Cc1ccc(/C=C(\C#N)C(=O)Nc2cccc3ncccc23)o1	i
74	Oc1ccc(Nc2nc(-c3cccnc3)cs2)cc1	i
75	CC(=O)Nc1ccc(NC(=O)CSC2=NS(=O)(=O)c3cc(F)ccc3N2)cc1	i
76	CCOC(=O)Cn1cnc2c(nnn2-c2ccc(OC)cc2)c1=O	i
77	Cc1ccccc1NC(=S)NC(=O)c1cncc(Br)c1	i
78	O=c1oc2ccccc2cc1-c1csc(Nc2nc3c(F)cccc3s2)n1	i
79	C#Cc1ccc([C@H]2C=C(C(=O)OCC=C)O[C@@H](OCCCCO)C2)cc1	i
80	C/C(=C\c1cccc(Br)c1)C(=O)c1c(C)cc(C)[nH]c1=O	i

The results go on.
No.	SMILES	CHT block
81	COC(=O)c1ccc(S(=O)(=O)N2CCN(CCO)CC2)n1C	i
82	CCOC(=O)C1(Cc2cccc(OC)c2)CCCN(C(=O)CCc2cccnc2)C1 (stereo not given)	i
83	Cc1ccc(N2CC(C(=O)OCc3ccc([N+](=O)[O-])cc3)CC2=O)cc1 (stereo not given)	i
84	CCOC(=O)Cc1csc(NC(=O)C(NC(=O)C2CCC(C)CC2)C(C)C)n1 (stereo not given)	i
85	CC(O)C(NS(=O)(=O)c1ccc(Cl)cc1)C(=O)OCc1nnc(-c2ccccc2)o1 (stereo not given)	i
86	O=C(Nc1ccc(F)cc1)c1cccnc1Oc1ccccc1	i
87	CCOC(=O)C1[C@H]2C(=O)N(CCCOC)C[C@]23C=C[C@H]1O3 (stereo not given in full)	i
88	O=C(CSCC(=O)Nc1ccc2ccccc2c1)NCc1ccccc1	i
89	O=[N+]([O-])c1cc(-c2nc(-c3ccncc3)no2)cc([N+](=O)[O-])c1	i
90	COC(OC)c1ccc(C#N)c(SCc2ccccc2)n1	i
91	C=C1CCN([C@@H](CC(C)C)C(=O)NCc2ccc(Cl)c(Cl)c2)S(=O)(=O)c2ccccc21	i
92	CCOC(=O)c1nnn(CC(=O)Nc2ccccc2OC)c1C(=O)OCC	i
93	COc1ccc(CCNC(=O)CCCN2C(=O)c3ccccc3C2=O)cc1	i
94	COC(=O)C1=CN(C)C=C(C(=O)OC)C1c1ccccc1Cl	i
95	CC(C)(C)NC(=O)Cn1c(=O)c(=O)n(Cc2ccccc2)c2ccc(Cl)cc21	i
96	O=C(CCc1ccc(S(=O)(=O)NCCc2ccccc2)cc1)Nc1ccc2c(c1)OCO2	i
97	Cc1cc2cccc(C)c2nc1SCC(=O)NCC1CCCO1 (stereo not given)	i
98	Cc1nnc(SCC(=O)c2ccc([N+](=O)[O-])cc2)s1	i
99	O=C(NCc1n[nH]c(=S)n1-c1cccc(Cl)c1)c1cccs1	i
100	Cc1cccc(NC(=S)NCC(c2cccnc2)N(C)C)c1C (stereo not given)	i

Following part:
No.	SMILES	CHT block
101	COc1ccc(C(=O)NCC(=O)OCC(=O)NCc2cccs2)cc1	i
102	O=C(CN1C(=O)CCC1=O)Nc1nc(-c2ccc(Cl)s2)cs1	i
103	Cc1nc(N2CCN(Cc3ccc(Cl)cc3)CC2)c2oc3ccccc3c2n1	i
104	NC(=O)c1cccc(S(=O)(=O)N2CCCCC2)c1	i
105	O=C(NCCNC(=O)c1ccccn1)c1ccc(Cl)cc1	i
106	O=C(NCCc1ccccc1)c1ccco1	i
107	CCOc1cc(/C=C2/C(=O)ON=C2C)ccc1OCc1ccccc1F	i
108	CCc1ccc2[nH]c(=O)c(CN(Cc3ccco3)C(=S)NCC3CCCO3)cc2c1 (stereo not given)	i
109	C=CCNC(=O)Nc1ccc(Br)cc1Cl	i
110	COc1ccc(S(=O)(=O)N2CCN(C3CC4CCC3C4)CC2)cc1 (stereo not given)	i
111	Cc1ccc(NC(=O)CSC2=Nc3ccccc3C3CC=NN23)c(C)c1 (stereo not given)	i
112	CC(C)(C)C1CCC(=NNC(=O)CN(c2ccccc2)S(C)(=O)=O)CC1 (stereo not given)	i
113	COc1ccccc1CO/N=C/NC(=O)c1c(OC)ccnc1Oc1ccc(F)cc1	i
114	CCOc1ccc(NC(=S)NCc2nc3ccccc3[nH]2)cc1	i
115	CCOC(=O)N1CCN(C(=O)c2noc3c2COc2ccccc2-3)CC1	i
116	CCCn1nnnc1SCC(=O)N1CCCCC1	i
117	COc1cccc(NC(=S)NCc2cccs2)c1	i
118	N#Cc1cc(Oc2cccc3cccnc23)c(-n2nnc3ccccc32)cc1C#N	i
119	O=C1c2ccccc2C(=O)N1OCc1cccc(Cl)c1	i
120	Cc1ccc(-c2cnc3n2CCCCC3)cc1	i

Continued:
No.	SMILES	CHT block
121	Cn1c(=O)cc(SCC(=O)NCCCN2CCOCC2)c2ccccc21	i
122	CCOc1ccccc1C1CC(c2ccc(F)cc2)Nc2nc(N)nn21 (stereo not given)	i
123	CCCCn1c(N)c(N(CCOC)C(=O)c2ccc(Br)s2)c(=O)[nH]c1=O	i
124	Cc1ccc(N2C(=O)CC(Sc3ccccc3C(=O)O)C2=O)cc1 (stereo not given)	i
125	CCOC(=O)N1CCC(N2Cc3cccc(C(=O)Nc4c(C)cccc4CC)c3C2=O)CC1	i
126	Cc1onc(-c2ccccc2)c1C(=O)NCC1CCN(C(=O)c2c(-c3ccccc3)noc2C)CC1	i
127	O=C(COc1ccccc1)NS(=O)(=O)c1ccccc1	i
128	COc1ccccc1NC(=O)CN1C(=O)C(C)SC(C)C1=O (stereo not given)	i
129	O=C(CC1C(=O)NCCN1Cc1cccc(Oc2ccccc2)c1)NCCc1cscn1 (stereo not given)	i
130	O=C(Nc1ccccc1)c1cc2ccc3ccccc3c2s1	i
131	CN(C(=O)COC(=O)c1cnc(Cl)c(Cl)c1)C1CCS(=O)(=O)C1 (stereo not given)	i
132	CCCC(=O)N1CCN(c2nc3ccc(Br)cc3s2)CC1	i
133	COc1ccc(CCNC(=O)Cn2nnc3ccccc3c2=O)cc1	i
134	O=C(CSCC(=O)NCc1ccco1)NCc1ccco1	i
135	O=C(COC(=O)c1cccc(Br)c1)NCCc1ccccc1	i
136	Cc1ccccc1C(=O)c1cccn1CC(=O)NCC1CCCO1 (stereo not given)	i

Screening results (PubChem)

An excerpt; most or all hits stand in other tables.
